H5N1 CPE: MDCK cell protection from H5N1 avian flu; cytopathic effect, luminescence, 72 h; hits give high values; no value below 0 was filed and about half of the inactive calls have no number; reference of the scale not given here; inhibition, % at 50 µM; hit rate 0.07% among 96,000; AID 740, 2007; in the data active = inhibition above about 25%
An asterisk follows results filed as active; i = inactive.

canonical_smiles	H5N1 CPE
CCCCCCCOC1(c2ccccc2)OC(=O)c2ccccc21 (stereo unspecified)	1.0
COc1ccc(-c2cc(C(=O)N3CCN(C(c4ccccc4)c4ccccc4)CC3)no2)cc1OC	i
CN1CCN(C(=O)C(Cc2ccccc2)NS(=O)(=O)c2ccc3c(c2)CCC(=O)N3)CC1 (stereo unspecified)	0.7
CC(=O)c1ccc(OC(C)C)c(CN2CCCCC2)c1	7.1
CCC(CC)C(=O)Nc1nnc(-c2cccs2)s1	i
CN(C)c1ccc(C(=O)OCC(=O)Nc2ccc(S(N)(=O)=O)cc2)cc1	i
Cc1cc(C(=O)CSc2nc(N)cc(=O)[nH]2)c(C)n1CCc1ccc(Cl)cc1	i
Cc1ccc(CNC(=O)CSc2nnnn2C)cc1	0.3
COc1cc(C)nc(N2CCC(C(N)=O)CC2)n1	0.5
Cc1ccc(CNC(=O)c2ccc(C#CC(C)(C)O)s2)cc1	1.0
COc1ccc(N2CCN(C(c3nnnn3CCc3ccccc3)C(C)C)CC2)cc1 (stereo unspecified)	i
CN=C(Nc1cc(C)nn1-c1ccccc1)c1ccc(F)cc1	i
FC(F)(F)c1ccc(N2CCOCC2)c(NC2=NCCCCC2)c1	1.4
O=C(Cn1cc2c(n1)CCCCC2)NC1CCCCCC1	1.3
CCCc1nnc(NC(=O)CCC(=O)N2CCCCCC2)s1	0.2
CC1(C)CC(=O)C(CCCN2C(=O)c3ccccc3C2=O)C(=O)C1	1.6
CCOc1cc(-c2cc(-c3ccc(C)o3)nc(N)c2C#N)ccc1O	2.1
CC(C(=O)N1c2ccccc2Sc2ccccc21)n1nnc(-c2cccs2)n1 (stereo unspecified)	0.4
COc1ccc(NC(=O)C2=C(C)C(=O)OC23CCC(C)CC3)cc1Cl (stereo unspecified)	0.4
CCOc1ccc(C(=O)Nc2cc(OC)ccc2OC)cc1	i

More records follow:
canonical_smiles	H5N1 CPE
CC(C)CCn1c(N)c(C(=O)OCC2CCCO2)c2nc3ccccc3nc21 (stereo unspecified)	0.5
COc1ccc(N2CC(C(=O)NC3CC(C)(C)NC(C)(C)C3)CC2=O)cc1 (stereo unspecified)	i
COC(=O)COc1ccc(S(=O)(=O)N2CCc3ccccc3C2)cc1C	0.1
CNC(=S)Nc1cccc2[nH]ncc12	i
CCOc1ccccc1N1CC(C(=O)NCCc2ccc(S(N)(=O)=O)cc2)CC1=O (stereo unspecified)	0.3
COC(=O)c1sc(Nc2ccccc2)nc1C	i
Cc1sc2nc(SCC(=O)N3CCN(CCO)CC3)n(-c3ccccc3)c(=O)c2c1C	1.6
CN(CCO)c1ncnc2nc[nH]c12	i
CC(=O)Nc1ccc(S(=O)(=O)N2CCN(c3ccc(C)c(Cl)c3)CC2)cc1	0.8
COC(=O)c1cnn(-c2nc3c(C)cccc3s2)c1C	i
CC(=O)c1ccc(NC2CC(O)C(O)CO2)cc1 (stereo unspecified)	0.3
Cc1ccc2[nH]c(=O)c(CN(CCO)Cc3nnnn3CCc3ccccc3)cc2c1	1.4
CN1CCCC(C(=O)C(C#N)c2ccccc2)C1 (stereo unspecified)	i
O=C(NCc1cccnc1)C(C(=O)c1ccc(F)cc1)n1ccccc1=O (stereo unspecified)	i
Cc1ccc2oc(-c3ccccc3)c(C(=O)O)c(=O)c2c1	i
CC(Oc1ccc(Cl)cc1Cl)c1nc(-c2ccc(NC(=O)c3cccnc3)cc2)no1 (stereo unspecified)	3.7
Cc1ccc2cc(CNC(C)C)c(=O)[nH]c2c1	0.2
CNCCc1c(C)n[nH]c1C	0.4
CNS(=O)(=O)c1cccc(C(=O)OCC(=O)c2cc(C)n(-c3ccc4c(c3)OCO4)c2C)c1	i
C=CCn1c(=O)[nH]c2cc(C(=O)N3CCN(c4cccc(Cl)c4)CC3)ccc2c1=O	2.4

Of the compounds above, 2 have a cyano group.
canonical_smiles	H5N1 CPE
CCOc1cc(-c2cc(-c3ccc(C)o3)nc(N)c2C#N)ccc1O	2.1
CN1CCCC(C(=O)C(C#N)c2ccccc2)C1 (stereo unspecified)	i

Following part
canonical_smiles	H5N1 CPE
Cn1nnc2cc(C(=O)N3CCN(c4ccccc4)CC3)ccc21	0.8
CCOc1cc2[nH]c(=S)n(CC3CCCO3)c(=O)c2cc1OCC (stereo unspecified)	0.8
Cn1c(Cn2c(=O)sc3ccccc32)nnc1SCC(=O)NC1CCCCC1	0.1
c1ccc(CNC2=NCCC2)nc1	i
CN(c1ccccc1)c1nc(N2CCCC2)nc(-n2ccnc2)n1	i
COC(=O)c1c(NC(=O)CSc2nnnn2-c2ccccc2)sc2c1CCC(C(C)(C)C)C2 (stereo unspecified)	1.7
COc1ccc2cc(CN(C(=O)Nc3ccccc3)C3CCCC3)c(=O)[nH]c2c1	i
OC(c1ccccc1)(c1ccc(F)cc1)C(c1ccccc1)N1CCOCC1 (stereo unspecified)	2.2
S=C(Nc1ccccn1)c1ccccn1	0.6
O=C1N(Cc2ccc(F)cc2Cl)c2ccccc2C12OCCCO2	i
CCOC(=O)c1cc(CC)sc1NC(=O)c1ccc2c(c1)OCCO2	0.1
Cc1cc(C(=O)CN2C(=O)NC(C)(c3cccc(Br)c3)C2=O)c(C)n1Cc1ccco1 (stereo unspecified)	i
CCOc1[nH]c(/N=C/c2ccco2)c(C#N)c1C#N	0.2
NC(=O)NC(CC(=O)OCC(=O)NC(=O)NCc1ccco1)c1ccc(Cl)cc1 (stereo unspecified)	i
Cc1ccc(SC(c2ccc(C)cc2)C(Cn2cncn2)C(=O)c2ccccc2)cc1 (stereo unspecified)	0.3
Cc1cccc(C2NS(=O)(=O)N=C2N)c1 (stereo unspecified)	i
COC(=O)CSc1cc(C(F)(F)F)nc(-c2ccccn2)n1	0.1
O=S(Cc1ccc(Br)cc1)Cc1nnc(SCc2ccc(Cl)cc2)n1-c1ccccc1 (stereo unspecified)	i
COc1ccc(CCN2C(=O)c3[nH]nc(-c4ccccc4O)c3C2c2ccccc2)cc1OC (stereo unspecified)	5.8
CCC(=O)Nc1cccc(NC(=O)CN2CCN(c3ccccc3OC)CC2)c1	0.2

As a working copy, 4 of the compounds above:
canonical_smiles	H5N1 CPE
COC(=O)CSc1cc(C(F)(F)F)nc(-c2ccccn2)n1	0.1
O=S(Cc1ccc(Br)cc1)Cc1nnc(SCc2ccc(Cl)cc2)n1-c1ccccc1 (stereo unspecified)	i
COc1ccc(CCN2C(=O)c3[nH]nc(-c4ccccc4O)c3C2c2ccccc2)cc1OC (stereo unspecified)	5.8
CCC(=O)Nc1cccc(NC(=O)CN2CCN(c3ccccc3OC)CC2)c1	0.2

Next section.
canonical_smiles	H5N1 CPE
COc1ccc2c(c1)CCc1c(C(=O)Nc3c(C)nn(Cc4ccccc4)c3C)noc1-2	i
O=S(=O)(Nc1ccc(-c2cn3ccsc3n2)cc1)c1ccc2c(c1)OCCO2	0.7
O=C(NCc1cccc(Cl)c1)c1cccnc1	1.6
COCCn1nnnc1C(c1ccc(OC)cc1)N1CCC(C)CC1 (stereo unspecified)	0.1
O=C1NCC2=C1C(c1ccccc1)Nc1ccccc1N2 (stereo unspecified)	1.3
CCn1nnnc1SCC(=O)NCc1cccs1	0.1
CCOC(=O)c1ccc(NC(=O)N2CCc3ccccc32)cc1	i
CCn1c(SCc2ccccc2)nnc1C1CCN(S(=O)(=O)c2ccc(OC)cc2)CC1	i
COc1ccc(N(CC(=O)N2CCN(Cc3ccc4c(c3)OCO4)CC2)S(C)(=O)=O)cc1OC	0.3
CCOC(=O)c1cnc2nc(C)[nH]n2c1=O	i
Cc1cc(OCCOCCN(C)CCO)cc(C)c1Cl	i
CSCCC(N=Cc1c(O)n(-c2ccc(F)cc2)c(=O)[nH]c1=O)C(=O)OC(C)(C)C (stereo unspecified)	i
O=C(O)C1=C(C(=O)N2CCN(C(=O)c3ccco3)CC2)CCCC1	0.7
Cc1cc(C)nc(Nc2nc(C)c3cc4c(cc3n2)OCO4)n1	i
c1ccc(-n2nc3c(ccc4cnnc43)[nH]2)cc1	0.1
CCN(CCCNC(=O)Cn1cc2c(n1)CCCC2)c1cccc(C)c1	0.2
COc1ccc(NC(=O)c2ccco2)cc1NC(=O)c1cc2ccccc2o1	1.4
CCOc1ccccc1C1NC(=O)NC(C)=C1C(=O)OC1CCCC1C (stereo unspecified)	i
COc1ccccc1NC(=O)Oc1ccc(NC(=O)c2ccco2)cc1	i
COC(=O)c1ccccc1NC(=O)Cn1c(=O)oc2ccc(Cl)cc21	0.1

Looked up one by one from above, 2 records:
canonical_smiles	H5N1 CPE
CC1(C)CC(=O)C(CCCN2C(=O)c3ccccc3C2=O)C(=O)C1	1.6
O=C1N(Cc2ccc(F)cc2Cl)c2ccccc2C12OCCCO2	i

(further entries)
canonical_smiles	H5N1 CPE
Cc1ccc(-n2ncc3c(=O)n(CC#N)cnc32)cc1C	0.0
CCOC(=O)c1nnn(-c2nonc2N)c1CN1CCCCCC1	0.7
O=C(Nc1ccc(O)c(C(=O)O)c1)c1ccc2c(c1)C(=O)N(CC1CCCO1)C2=O (stereo unspecified)	0.3
O=C(Cn1nnc(-c2ccccc2-n2cnnn2)n1)N1CCCCC1	0.4
Cc1csc(NC(=O)NC2(C(F)(F)F)Oc3ccccc3O2)n1	0.7
O=C(CN1CCc2ccccc2C1)N1CCN(S(=O)(=O)c2ccccc2)CC1	1.1
Cc1cc(NS(=O)(=O)c2ccc(NC(=O)COc3ccccc3C(C)C)cc2)no1	1.1
COc1cc(OC)cc(OCC(O)Cn2ccnc2)c1 (stereo unspecified)	i
Cc1ccsc1C(=O)OCC(=O)N1CC(=O)Nc2ccccc21	i
COc1ccc(CCNC(=O)CSc2ccc(-c3ccccc3)nn2)cc1OC	0.8
COCc1nnc(N)s1	i
O=C(Nc1ccc(Cl)c(C(F)(F)F)c1)c1ccco1	i
Cc1c(C(=O)NCCSCc2ccccc2Cl)cccc1[N+](=O)[O-]	0.4
O=C(NCCc1nc2ccccc2[nH]1)c1ccco1	0.7
Cc1oc(C(C)(C)C)cc1C(=O)Nc1cccc(/C=C/C(=O)O)c1	i
CCC(=O)NCC(c1cccs1)N1CCOCC1 (stereo unspecified)	0.7
COc1ccc(OC)c(S(=O)(=O)N2CCC(C(=O)NCCc3ccc(OC)c(OC)c3)CC2)c1	1.1
CCOc1ccc(C2C(C(=O)c3ccc(C)o3)=C(O)C(=O)N2CCN2CCOCC2)cc1OC (stereo unspecified)	2.4
O=C1CC(/C=C/c2ccco2)=Nc2ccccc2N1	i
COCCCNC(=O)C1CC(=O)N(CCc2ccc(OC)c(OC)c2)C1 (stereo unspecified)	i

New compounds follow:
canonical_smiles	H5N1 CPE
CCOc1ccc(C(=O)C2CCN(C(=O)c3ccccc3C(=O)O)CC2)cc1	i
COC(=O)c1ccc(NC(=S)NCCc2cccc(C)c2)cc1	2.1
Cc1ccccc1NC(=O)c1ccc(C)c(S(=O)(=O)Nc2ccccn2)c1	1.3
CCN1CCN(S(=O)(=O)c2ccc(S(=O)(=O)NCC3CCCO3)cc2)CC1 (stereo unspecified)	i
Cc1ccc(NC(=O)C2CC(=O)NC(Nc3cccc(C)c3)=N2)cc1 (stereo unspecified)	0.1
C=CCn1c(=O)c(C=Nc2cccc([N+](=O)[O-])c2)c(O)n(CCCC)c1=O	i
CCOc1ccc(-c2nnc(-c3ccncc3)o2)cc1	i
O=C(O)C1C2C=CC(C2)C1C(=O)NCCc1cccc(Cl)c1 (stereo unspecified)	i
CC(C)(C)OC(=O)N1CCC(c2c(C(=O)O)cnn2-c2ccc(Cl)cc2)CC1	0.4
CCCSc1nnc(-c2ccccc2N)c(=O)[nH]1	i
Cc1ccc(C)c(N(CC(=O)NCc2ccco2)C(=O)CCC(=O)Nc2ccccn2)c1	1.1
COc1ccc2[nH]c(=O)c(CN(Cc3nnnn3Cc3ccc(F)cc3)CC3CCCO3)cc2c1 (stereo unspecified)	i
C=C(C)c1cccc(C(C)(C)NC(=O)N2CCN(C/C=C/c3ccccc3)CC2)c1	0.3
O=S(=O)(c1ccccc1)c1nc(-c2ccco2)oc1NCc1cccnc1	4.8
O=c1ccc(Oc2nc(N3CCOCC3)nc(N3CCOCC3)n2)nn1-c1ccccc1	0.6
CCCCc1nn(-c2cc(Cl)ccc2OC)c2c1C(=O)CCC2	1.0
Cc1ccccc1-n1c(C)n[nH]c1=S	i
COC(=O)c1ccc(NCCc2csc(-c3ccc(C)cc3)n2)c([N+](=O)[O-])c1	i
Cc1ccc(-n2c(SCC(N)=O)nnc2-c2cccnc2)c(C)c1	0.1
COc1cccc(-n2c(Cc3cc(=O)[nH]c(=O)[nH]3)nnc2SCC(=O)N2CCCCC2)c1	1.1

Continued.
canonical_smiles	H5N1 CPE
CN(C)/C=C(\C#N)C(=O)Nc1ccc(F)cc1	0.6
CCOC(=O)C1=C(C)N=C2SC(C)C(=O)N2C1c1ccc(OCC)c(OCC)c1 (stereo unspecified)	0.3
O=C1CC2CS(=O)(=O)CC2N1c1ccc(Oc2ccccc2)cc1 (stereo unspecified)	0.6
O=C(N/N=C/c1ccco1)/C(=C/c1cccc([N+](=O)[O-])c1)NC(=O)c1ccccc1	0.7
COC(=O)C1(CO)NC(c2cccs2)C2C(=O)N(c3ccccc3)C(=O)C21 (stereo unspecified)	0.7
CC(C)C(=O)Nc1ccccc1N1CCN(C(=O)c2ccccc2)CC1	2.9
CC1(CCc2ccc(O)cc2)NC(=O)NC1=O (stereo unspecified)	i
COc1ccc(NC(=O)c2cccs2)cc1OC	i
Cc1ccc(C)c(OCC(=O)N/N=C/c2ccsc2)c1	i
COC(=O)c1ccc(C(=O)Nc2ccc(N)cc2N)cc1	i
Cc1ccc(NC(=O)CCC(=O)n2nc(C)cc2C)c(C)c1	i
O=C(NC1CCS(=O)(=O)C1)Oc1ccccc1 (stereo unspecified)	i
COC(=O)c1ccc2c(c1)S(=O)(=O)NC(=NCCCN1CCOCC1)S2	0.8

These rows are one share of the data; the hit share may differ from the screen's.
